# Screens deposited in PubChem BioAssay by PCMD.
# Calb biofilm kill: mixture kills Candida albicans biofilm cells; C. albicans biofilm persisters + clotrimazole, fluorescence viability; primary screen in compound mixtures of four per well; inhibition, % at 7.6 µM; actives 0.02% (n = 120,000); AID 1242;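 active = inhibition above 30.3% in the primary screen of four-compound pools, then above 30% when the compound was retested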;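 note: compounds exposed to preformed 24 h biofilms for 48 h; the number belongs to the whole pool; some results filed as inactive read as strong as hits; inactives centre near 12; 0% = biofilm with clotrimazole alone and 100% = kill control; retested singly at about 60 µM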
#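 Incubation: 24 h biofilm formation, then 48 h compound exposure, 37 °C | Material: C. albicans biofilms | Buffer or medium: RPMI/MOPS medium, pH 7.0 | Measured by: 2-h Alamar Blue fluorescence, 535/590 nm excitation/emission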
# An asterisk follows results filed as active.
SMILES,Calb biofilm kill
CC(C)c1ccc(S(=O)(=O)N2CCCCC2)cc1,14.9
C/C(=N\NC(=O)CN1CCN(S(=O)(=O)c2ccc(C)cc2)CC1)c1ccncc1,12.9
CS(=O)(=O)N1CCN(c2ncnc3c2cnn3-c2ccccc2)CC1,-3.8
COc1cc(/C=C2/NC(=O)NC2=O)cc(Br)c1OCc1cccc(C(=O)O)c1,12.6
C#CCSc1nc2[nH]ncc2c(=O)[nH]1,12.6
Cc1cc(N2CCN(C3CCCCC3)CC2)n2nc(C)nc2n1,8.2
COc1cc(SC)ccc1C(=O)OCC(=O)NC1CC1,7.2
CCC(C(=O)NC1CCCC1)N(C(=O)Cn1nnc(-c2ccc(C)cc2)n1)C1CCCC1 (configuration not stated),-6.0
C/C(=N/NC(=O)c1cccc(C)c1)c1c(O)cc(C)oc1=O,15.5
COC(=O)c1scc(C)c1S(=O)(=O)Nc1ccc(C)cc1,-11.5
CC(C)C(NC(=O)CN(c1cccc(F)c1)S(C)(=O)=O)C(C)C,-5.0
O=C(C1CCC(=O)N1Cc1cccs1)N1CCOCC1 (configuration not stated),9.2
CN1CCN(c2ccc(CNS(=O)(=O)c3ccc(Cl)cc3)cc2)CC1,19.7
COc1ccc(/C=C/C(=O)Nc2ccc(NC(C)=O)cc2)cc1S(=O)(=O)N1CCOCC1,15.3
Clc1ccc(C2[C@H]3CN(CC4CCCCC4)[C@H](c4ccccc4)C34CC2(c2ccccc2)C4)cn1 (some centres not stated),15.2
CCN(CC)CCNC(=O)/C(=C/c1cn(C)c2ccccc12)NC(=O)c1ccc(OC)c(OC)c1,16.5
Cc1nnc(SCC(=O)N(C(C)C)C(C)C)[nH]c1=O,10.3
O=C(NCCC1=CCCCC1)c1cc2ccccc2oc1=O,8.1
O=C(CCl)N1CCN2C(=O)c3ccccc3C12c1ccc(Cl)cc1 (configuration not stated),16.3
CCc1nn(CC(=O)Nc2cc(C)ccc2C)c(=N)s1,12.2
COC(=O)c1c(NC(=O)CCC(=O)O)sc2c1CCCCC2,11.6
CCc1nnc(NC(=O)CCN(c2cc(C)cc(C)c2)S(=O)(=O)c2ccc(Cl)cc2)s1,16.8
CCn1c(Cc2ccccc2)nnc1SCC(=O)Nc1ccc(C)cc1,8.0
C=CCc1cccc(/C=C/c2cc(=O)c3ccccc3[nH]2)c1O,8.2
CC(C)[C@H](NC(=O)[C@H](CCCN=C(N)N)NC(=O)NC(Cc1ccccc1)C(=O)O)C(=O)NC(C=O)CCCN=C(N)N (some centres not stated),19.5
CCN(CC(=O)Nc1ccc(C(C)=O)cc1)CC(=O)Nc1cccc(OC)c1,10.8
O=C(NCCc1ccccc1)N1CCCC(CNS(=O)(=O)Cc2ccccc2)C1 (configuration not stated),10.2
O=c1c(-c2ccccc2)c[nH]n1-c1cccc([N+](=O)[O-])c1,4.9
O=C(NC(=S)Nc1cccc2ncccc12)c1ccccc1,-0.9
O=C(O)c1ccccc1C(=O)Nc1ccc(Oc2ccccc2)cc1,2.9
Cc1cc(C)nc(SCC(=O)Nc2ncc(Cc3cccc(Cl)c3)s2)n1,1.9
CCc1nc(N2CCN(C(=O)c3ccccc3)CC2)c2c3c(sc2n1)CCCC3,0.4
CC(C)CCNC(=O)c1c(CSc2ccccc2)noc1C(=O)NCc1ccccc1,-2.4
CC(C)(C)c1ccc(S(=O)(=O)NCc2ccc(C(=O)NCc3ccccn3)cc2)cc1,27.4
COc1ccccc1N1CCN(C(=O)/C=C/c2cccc([N+](=O)[O-])c2)CC1,3.9
Cc1cc(C)n(-c2nnc(NC(C)(C)C)nn2)n1,8.8
NNC(=O)C(=O)Nc1ccc(Cl)c(Cl)c1,9.4
COc1ccccc1C1CCN(c2cc(O)ccc2[N+](=O)[O-])CC1,-1.0
CCOC(=O)NNS(=O)(=O)c1cc(Br)ccc1Br,9.2
CCO[C@@H]1OC(C(=O)Nc2ccccc2)=C[C@H](c2ccc3c(c2)OCO3)[C@H]1CCCO,14.9
Cc1n[nH]c(C)c1CCN(C)Cc1cn(C)nc1-c1ccc2c(c1)OCCO2,24.1
COC(=O)[C@@]1(Cc2ccccc2)[C@H]2c3cc(C(=O)N4CCCC4)n(CCSCCO)c3C[C@H]2CN1C(=O)c1ccccc1,15.3
Cc1cccc(C)c1NC(=O)CN(c1ccccn1)S(=O)(=O)c1ccccc1,20.1
COc1ccc(NCC(=O)Nc2ccc(Br)cc2F)c(OC)c1,19.4
CNC(=O)c1c(NC(=O)c2ccc(N3C(=O)CCC3=O)cc2)sc2c1CCCC2,15.7
CS(=O)(=O)N(CC(=O)N/N=C/c1ccccn1)c1ccc(Oc2ccccc2)cc1,5.4
COc1cccc(CNC(=S)NC2CCCC2)c1,3.0
CCOP(=O)(OCC)C(Nc1cccc([N+](=O)[O-])c1)c1ccc(OC)cc1 (configuration not stated),7.9
C=C1CCN([C@H](C(=O)Nc2ccc(OC)cc2)C(C)C)S(=O)(=O)c2ccccc21,17.6
Cc1ccc(-n2c(C)nn(Cc3ccc([N+](=O)[O-])cc3)c2=O)cc1,18.0
O=S(=O)(NN=C1CCCCCCC1)c1ccc(Br)cc1,14.5
N=c1c2c(ncn1CCCO)Oc1c(ccc3ccccc13)C2c1ccccc1 (configuration not stated),-5.8
CC(=O)c1cccc(CN2CCN(CC=C(C)C)C(CCO)C2)c1 (configuration not stated),-0.5
CNCc1ccccc1Sc1ccc(O)c(O)c1,8.0
CCCN1C(=O)S/C(=C/c2ccc(N3CCOCC3)o2)C1=O,-0.1
CCNc1nc(NCC)n2c(SCC(=O)c3ccccc3F)nnc2n1,3.3
CCOC(=O)CCNC(=O)N1CCCC(C(=O)c2ccccc2SC)C1 (configuration not stated),27.0
CS(=O)(=O)N1CCc2cc(S(=O)(=O)NCCNS(=O)(=O)c3ccc4c(c3)CCN4S(C)(=O)=O)ccc21,0.4
O=C(CCC1CCCN(C(=O)Cc2cccc(F)c2)C1)N1CCN(c2ccccn2)CC1 (configuration not stated),14.5
Cc1ccc(NC(=O)c2ccc(NCCc3ccccc3)c([N+](=O)[O-])c2)cc1F,8.9
# (further entries)
SMILES,Calb biofilm kill
COc1ccc(-c2csc(NC(=O)CN3C(=O)CCC3=O)n2)c(OC)c1,7.8
COC(=O)[C@H](Cc1ccccc1)NC(=O)NCc1ccc(C)cc1,13.3
O=C(CN1CCN(S(=O)(=O)c2ccc(F)cc2)CC1)c1ccc(O)c(O)c1,15.2
COc1cccc(Nc2ccc(Nc3cccc(OC)c3)nn2)c1,9.6
COc1ccc(/C=C/C(=O)O)cc1S(=O)(=O)NCC1CCCO1 (configuration not stated),32.0
Cc1cc2cc(C)c3nnc(SCC(=O)Nc4ccc(S(=O)(=O)N5CCCCC5)cc4)n3c2cc1C,9.2
CCN(CC)c1ccc(CNc2nc3ccccc3n2C)cc1,5.0
CC1=C(C(=O)OCc2ccccc2)C(c2cccs2)N2C(=O)CCSC2=N1 (configuration not stated),0.7
O=C1NC(=S)S/C1=C\c1cc2ccccc2nc1N1CCCCC1,12.6
CCOC(=O)c1ccc(NC(=S)NNC(=O)C2(C)CC2(Cl)Cl)cc1 (configuration not stated),8.7
CSc1ccc(NC(N)=S)cc1,0.3
CC1=C(C#N)c2nc(N)c(C#N)c(C)c2/C1=C\c1ccc(-c2ccccc2C(=O)O)o1,10.6
Cc1cc(C(=O)OCC(N)=O)c(C)n1-c1ccccc1,13.7
O=C(NC(=S)Nc1cccc(C(F)(F)F)c1)c1csnn1,11.2
CN(C)CCNC(=O)/C(=C/c1ccc(-c2ccc(Cl)cc2)o1)NC(=O)c1ccccc1,21.4
COc1cc(/C=N/OCC(=O)NC2CCCCC2)ccc1OCc1ccccc1,6.6
CC(C)Cc1nc2ccccc2n1CCc1ccccc1,5.0
Cc1cc(C(=O)N/N=C/c2c(C)nn(-c3ccccc3)c2C)c(C)o1,16.7
O=C(/C(=C/c1cccnc1)n1ccnc1)c1ccc(Cl)cc1Cl,25.0
CCCCC(O)(CCCC)C(=O)NN(C(=O)OCC)c1ccccc1,17.4
CCOP(=O)(O)c1cccc(OCCOCCOc2cccc(P(=O)(O)OCC)c2)c1,17.0
CC(C)(C)C1c2[nH]c3ccccc3c2CCN1Cc1cccc(OCCO)c1 (configuration not stated),6.9
C=CCN1c2ccccc2[C@]23C[C@@H](C(=O)OC)N(C(=O)c4cccs4)C2=NC(C(=O)OC)=C(C(=O)OC)[C@H]13,17.4
CC(=O)Nc1ccc(S(=O)(=O)Nc2ccc(=O)n(Cc3ccc(Cl)c(Cl)c3)c2)cc1,10.3
COCCn1c(SCc2nnc(-c3ccc(OC)c(OC)c3)o2)nnc1-c1ccncc1,22.2
CCSc1nnc(NC(=O)c2cccc(S(=O)(=O)N(C)c3ccc(C)cc3)c2)s1,24.9
Cc1ccc(C(=O)OCCN(C)Cc2ccccc2)cc1,3.9
CC1CC(=O)NN=C1c1ccc(N)c([N+](=O)[O-])c1 (configuration not stated),12.6
Cc1cccc(NC(=S)NC(C)CCc2ccccc2)c1 (configuration not stated),6.8
C[C@H](NC(=O)c1ccccc1Cl)C(=O)OCCOc1ccc(Cl)cc1,14.9
Clc1ccc(-c2nc3ccncc3[nH]2)cc1,-4.7
CC1CCN(Cc2c(O)ccc3c2O/C(=C\c2ccco2)C3=O)CC1,5.4
Cc1cc(Nc2ccc(Cl)cc2)nc(N2CCOCC2)n1,29.5
O=C(c1ccc(F)cc1)N1CCCN(c2nc(-c3ccccc3)ns2)CC1,9.9
CSc1ccc(C(=O)C2CCCN(C(=O)c3ccc(C)nc3)C2)cc1 (configuration not stated),18.4
CCn1c(C)cc(O)cc1=O,12.5
Cc1ccccc1Nc1nc(N)nc(COC(=O)c2cccc(S(=O)(=O)N(C)c3ccccc3)c2)n1,12.6
COc1cc(/C=N/NC(=O)C2(O)c3ccccc3-c3ccccc32)ccc1O,21.2
Cc1nc(NCCOc2ccccc2)sc1C(=O)Nc1ccccc1,15.5
CCCCCn1c(N)c(-c2nc3ccccc3o2)c2c([N+](=O)[O-])nn(CC)c(=O)c21,7.1
Cc1onc(-c2ccccc2)c1-c1csc(N/N=C/c2ccccc2Cl)n1,22.1
CN1CCN(c2ccccc2NC(=O)c2cccc([N+](=O)[O-])c2)CC1,15.3
CC(C)(C)c1ccc(NC(=O)c2c(F)cccc2Cl)cc1,14.9
COc1cc([N+](=O)[O-])c2ncsc2c1,0.4

# This is a subset. The share of hits here may be higher or lower than overall.
